# Vaccinia inh: blocks a specific stage of Vaccinia orthopoxvirus infection. Vaccinia-infected cells, mCherry/Venus stage reporter fluorescence; active compounds read low; some inactives read as strong as hits. activity change (mCherry), % (no concentration beside the values). 0.01% of 89,000 active;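 active means mCherry past -33% and 40 or more points under the early reporter, replicates agreeing; inconclusive means past -33% without that gap or agreement; tested in A549 cells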;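 further: scaled between vehicle wells and reference inhibitor wells; 23 nL library stock went into each well; one replicate is shown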
# Vaccinia inh Venus: recorded beside Vaccinia inh, whose call it bears; activity change (Venus), %; measured here: Venus reporter, other viral stage;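 negative = less Venus signal; first of two replicates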
# * marks the source's active call; other numbers are inactive results; ? = inconclusive; / = no result given; & = joins results of further samples. This is a subset; the hit share may differ from the screen's.
> COc1ccc(OC(=O)N(C)C[C@H]2OCc3cn(nn3)CCCC(=O)N([C@H](C)CO)C[C@H]2C)cc1
  Vaccinia inh: 4; Vaccinia inh Venus: -1

> C[C@@H]1CN([C@@H](C)CO)S(=O)(=O)c2ccc(C3=CCCC3)cc2O[C@H]1CN(C)C(=O)c1ccc(F)cc1
  Vaccinia inh: -16; Vaccinia inh Venus: -4

> CN1C(=O)c2cc(NC(=O)c3cccs3)ccc2OC[C@H]2O[C@H](CC(=O)NCCN3CCCCC3)CC[C@H]21
  Vaccinia inh: -1; Vaccinia inh Venus: 1

> Cc1ccc(S(=O)(=O)Nc2ccc3c(c2)CC(=O)N([C@H](C)CO)C[C@@H](C)[C@@H](CN(C)S(=O)(=O)c2c(C)noc2C)O3)cc1
  Vaccinia inh: -16; Vaccinia inh Venus: -10

> Cc1ccc(S(=O)(=O)N(C)C[C@H]2OCCCC[C@@H](C)Oc3ccc(NC(=O)Nc4ccccc4)cc3C(=O)N([C@@H](C)CO)C[C@@H]2C)cc1
  Vaccinia inh: -7; Vaccinia inh Venus: 6

> COCCNC(=O)C[C@@H]1CC[C@@H]2[C@H](COC[C@@H](O)CN2C(=O)Nc2ccc3c(c2)OCO3)O1
  Vaccinia inh: 11; Vaccinia inh Venus: 11

> C[C@@H]1CN([C@@H](C)CO)C(=O)c2cc(NS(=O)(=O)c3cccs3)ccc2O[C@@H]1CN(C)C(=O)Nc1ccc2c(c1)OCO2
  Vaccinia inh: 17; Vaccinia inh Venus: 4

> Cc1ccc(S(=O)(=O)N(C)C[C@@H]2OCCCC[C@H](C)Oc3ccc(NS(=O)(=O)c4cccs4)cc3C(=O)N([C@@H](C)CO)C[C@@H]2C)cc1
  Vaccinia inh: ?; Vaccinia inh Venus: /

> N#C[C@H]1[C@@H](c2ccc(C#CC3(O)CCCC3)cc2)[C@@H](CO)N1C(=O)C1CCCCC1
  Vaccinia inh: -29; Vaccinia inh Venus: -21

> CCC(=O)N1[C@H](CO)[C@@H](c2ccccc2)C12CN(C(=O)Nc1cccc(OC)c1)C2
  Vaccinia inh: 12; Vaccinia inh Venus: 13

> CCNC(=O)[C@H]1[C@H](CO)[C@H]2Cn3c(ccc(-c4ccccc4OC)c3=O)[C@H]2N1CC
  Vaccinia inh: 6; Vaccinia inh Venus: -1

> COc1cccc(S(=O)(=O)N[C@H]2C=C[C@H](CC(=O)NCc3ccc(Cl)cc3)O[C@H]2CO)c1
  Vaccinia inh: 4; Vaccinia inh Venus: 7

> C/C=C/c1cnc2c(c1)C(=O)N([C@@H](C)CO)C[C@@H](C)[C@H](CN(C)Cc1cncnc1)O2
  Vaccinia inh: 17; Vaccinia inh Venus: 7

> CN(C)C(=O)C[C@@H]1CC[C@@H]2[C@H](COc3ccc(NS(=O)(=O)c4cccc(F)c4)cc3C(=O)N2C)O1
  Vaccinia inh: 1; Vaccinia inh Venus: 4

> C[C@@H]1CN([C@@H](C)CO)C(=O)Cc2cc(NC(=O)Cc3ccccc3)ccc2O[C@H]1CN(C)Cc1ccncc1
  Vaccinia inh: 4; Vaccinia inh Venus: 2

> C[C@@H]1CCCCO[C@H](CN(C)C(=O)C2CCCCC2)[C@@H](C)CN([C@H](C)CO)C(=O)c2cc(NC(=O)Nc3cccc4ccccc34)ccc2O1
  Vaccinia inh: 13; Vaccinia inh Venus: -3

> C[C@@H]1CN([C@@H](C)CO)C(=O)Cc2cc(NC(=O)CCC(F)(F)F)ccc2O[C@@H]1CN(C)Cc1ccc(C(=O)Nc2ccccc2N)cc1
  Vaccinia inh: -16; Vaccinia inh Venus: -9

> O=C(Nc1ccccc1F)N[C@H]1CC[C@H](CCNS(=O)(=O)c2ccc(F)cc2)O[C@H]1CO
  Vaccinia inh: -21; Vaccinia inh Venus: -24

> C[C@@H]1CCCCO[C@@H](CN(C)C(=O)CCC(F)(F)F)[C@@H](C)CN([C@H](C)CO)C(=O)c2cc(NC(=O)Nc3ccc4c(c3)OCO4)ccc2O1
  Vaccinia inh: 16; Vaccinia inh Venus: 19

> CO[C@H]1CN(C)C(=O)c2ccc(NC(=O)Nc3cc(Cl)cc(Cl)c3)cc2OC[C@@H](C)NC[C@@H]1C
  Vaccinia inh: ?; Vaccinia inh Venus: /

> CN(C)C(=O)c1ccc(-c2ccccc2[C@H]2[C@@H](C#N)N(C(=O)C3CCCC3)[C@H]2CO)cc1
  Vaccinia inh: 4; Vaccinia inh Venus: 5

> C[C@@H]1CN([C@H](C)CO)C(=O)c2cc(C#CC3(O)CCCC3)cnc2O[C@H]1CN(C)S(=O)(=O)c1cccc(F)c1
  Vaccinia inh: 15; Vaccinia inh Venus: 3

> C[C@H](CO)N1C[C@H](C)[C@@H](CN(C)Cc2ccc(-c3ccccc3)cc2)Oc2ccc(N(C)C)cc2C1=O
  Vaccinia inh: -13; Vaccinia inh Venus: -12

> C[C@@H]1CN([C@@H](C)CO)C(=O)Cc2cc(NC(=O)Nc3cccc4ccccc34)ccc2O[C@@H]1CN(C)Cc1ccc(-c2ccccc2)cc1
  Vaccinia inh: 20; Vaccinia inh Venus: 9

> O=C(C[C@H]1C[C@@H]2c3cc(NC(=O)Nc4ccc(C(F)(F)F)cc4)ccc3O[C@@H]2[C@@H](CO)O1)NCc1cc(F)ccc1F
  Vaccinia inh: ?; Vaccinia inh Venus: /

> C[C@H]1CN([C@@H](C)CO)S(=O)(=O)c2ccc(Br)cc2O[C@@H]1CN(C)C(=O)CC1CC1
  Vaccinia inh: -2; Vaccinia inh Venus: -5

> COc1ccc2c3c(n(C)c2c1)[C@H](CO)N(C(=O)Cc1ccccc1)CC31CN(C(=O)Cc2ccccc2)C1
  Vaccinia inh: -34; Vaccinia inh Venus: -34

> O=C(C[C@@H]1CC[C@H](NS(=O)(=O)c2cccc(F)c2)[C@H](CO)O1)NCc1ccc2c(c1)OCO2
  Vaccinia inh: -6; Vaccinia inh Venus: -3

> C[C@@H]1CN([C@@H](C)CO)C(=O)c2cc(NC(=O)C3CCCCC3)ccc2O[C@@H]1CN(C)C(=O)NC1CCCCC1
  Vaccinia inh: 14; Vaccinia inh Venus: 4

> CC(=O)N1[C@H](CO)[C@@H](c2ccccc2)[C@@H]1CN(C(=O)c1cccc(F)c1)C(C)C
  Vaccinia inh: 9; Vaccinia inh Venus: 10

# 3 entries out of the list, ordered by length of the SMILES, highest first.
> C[C@@H]1CN([C@@H](C)CO)C(=O)Cc2cc(NC(=O)Nc3cccc4ccccc34)ccc2O[C@@H]1CN(C)Cc1ccc(-c2ccccc2)cc1
  Vaccinia inh: 20; Vaccinia inh Venus: 9

> CO[C@H]1CN(C)C(=O)c2ccc(NC(=O)Nc3cc(Cl)cc(Cl)c3)cc2OC[C@@H](C)NC[C@@H]1C
  Vaccinia inh: ?; Vaccinia inh Venus: /

> C[C@H]1CN([C@@H](C)CO)S(=O)(=O)c2ccc(Br)cc2O[C@@H]1CN(C)C(=O)CC1CC1
  Vaccinia inh: -2; Vaccinia inh Venus: -5

# Remaining list, next part.
> C/C=C/c1ccc2c(c1)O[C@@H](CN(C)Cc1cccnc1)[C@@H](C)CN([C@H](C)CO)S2(=O)=O
  Vaccinia inh: -2; Vaccinia inh Venus: -4

> C[C@H]1CN([C@@H](C)CO)C(=O)c2cccc(NC(=O)Nc3ccc4c(c3)OCO4)c2O[C@@H]1CN(C)S(=O)(=O)c1cn(C)cn1
  Vaccinia inh: 3; Vaccinia inh Venus: 2

> Cc1noc(C)c1NC(=O)Nc1cccc2c1O[C@@H](CN(C)C(=O)Nc1cccc3ccccc13)[C@H](C)CN([C@@H](C)CO)C2=O
  Vaccinia inh: 11; Vaccinia inh Venus: 14

> O=C(Nc1ccc(F)cc1)N1C[C@@H]2[C@H](c3ccccc31)[C@H](CO)N2C(=O)Cc1cccnc1
  Vaccinia inh: 8; Vaccinia inh Venus: 5

> CN1C(=O)c2cc(NC(=O)c3ccc(F)cc3)ccc2OC[C@@H]2O[C@@H](CC(=O)N3CCOCC3)CC[C@H]21
  Vaccinia inh: 9; Vaccinia inh Venus: 11

> O=C(C[C@@H]1C=C[C@H](NS(=O)(=O)c2ccc(F)cc2)[C@@H](CO)O1)N1CCC(Cc2ccccc2)CC1
  Vaccinia inh: -24; Vaccinia inh Venus: -14

> CCC(=O)Nc1ccc2c(c1)C(=O)N(C)[C@H]1CC[C@@H](CC(=O)NCCc3ccncc3)O[C@@H]1CO2
  Vaccinia inh: 9; Vaccinia inh Venus: 8

> Cc1ccc(S(=O)(=O)Nc2cccc3c2O[C@H](CN(C)C(=O)NC(C)C)[C@H](C)CN([C@H](C)CO)C3=O)cc1
  Vaccinia inh: 14; Vaccinia inh Venus: 10

> COc1ccc(NC(=O)N(C)C[C@H]2Oc3c(NC(=O)c4cc(C)nn4C)cccc3C(=O)N([C@H](C)CO)C[C@H]2C)cc1
  Vaccinia inh: 17; Vaccinia inh Venus: 5

> COc1cccc(-c2ccc3c(c2)O[C@@H](CN(C)C(=O)C2CCC2)[C@@H](C)CN([C@@H](C)CO)S3(=O)=O)c1
  Vaccinia inh: -23; Vaccinia inh Venus: -12

> C[C@@H]1CN([C@@H](C)CO)C(=O)c2cc(NC(=O)NC3CCCCC3)ccc2O[C@H]1CN(C)C(=O)Nc1ccc2c(c1)OCO2
  Vaccinia inh: 20; Vaccinia inh Venus: 8

> Cc1ccc(S(=O)(=O)N(C)C[C@H]2Oc3ccc(NS(=O)(=O)c4c(C)noc4C)cc3C(=O)N([C@@H](C)CO)C[C@H]2C)cc1
  Vaccinia inh: 18; Vaccinia inh Venus: 17

> C[C@H]1CN([C@@H](C)CO)C(=O)Cc2cc(NC(=O)CCCCCC(=O)Nc3ccccc3N)ccc2O[C@@H]1CN(C)Cc1ccncc1
  Vaccinia inh: -10; Vaccinia inh Venus: -1

> Cc1ccc(S(=O)(=O)Nc2ccc3c(c2)C(=O)N([C@H](C)CO)C[C@H](C)[C@@H](CN(C)S(=O)(=O)c2ccc(Cl)cc2)O3)cc1
  Vaccinia inh: 8; Vaccinia inh Venus: 20

> C[C@@H]1CN([C@@H](C)CO)C(=O)c2cc(C3=CCCCC3)cnc2O[C@H]1CN(C)C(=O)C1CCOCC1
  Vaccinia inh: 4; Vaccinia inh Venus: 2

> CCCNC(=O)N1C[C@@H](O)COC[C@@H]2O[C@H](CC(=O)NCCCN3CCOCC3)CC[C@H]21
  Vaccinia inh: 16; Vaccinia inh Venus: 6

> C[C@H]1CN([C@@H](C)CO)C(=O)c2cc(C#Cc3ccccc3F)cnc2O[C@@H]1CN(C)C(=O)C1CCOCC1
  Vaccinia inh: 4; Vaccinia inh Venus: 3

> C[C@@H]1CN([C@H](C)CO)C(=O)c2cc(C#C[C@@H](C)O)cnc2O[C@H]1CN(C)Cc1cccc(F)c1
  Vaccinia inh: 9; Vaccinia inh Venus: 6

> O=C(N[C@H]1CC[C@@H](CCNC(=O)c2ccccc2F)O[C@H]1CO)c1cnccn1
  Vaccinia inh: -1; Vaccinia inh Venus: 1

> COC(=O)C[C@@H]1CC[C@@H]2[C@H](COc3ccc(NC(=O)c4ccccc4)cc3C(=O)N2C)O1
  Vaccinia inh: -9; Vaccinia inh Venus: -1

> CCCC#Cc1ccc2c(c1)O[C@H](CN(C)CCC)[C@@H](C)CN([C@H](C)CO)S2(=O)=O
  Vaccinia inh: ?; Vaccinia inh Venus: /

> O=C(C[C@H]1C[C@H]2c3cc(NC(=O)NC4CCCC4)ccc3O[C@H]2[C@@H](CO)O1)NCc1ccc(Cl)cc1
  Vaccinia inh: 3; Vaccinia inh Venus: 5

> C[C@@H]1CN([C@H](C)CO)C(=O)c2cc(C#CCc3ccccc3)cnc2O[C@@H]1CN(C)Cc1ccccc1
  Vaccinia inh: -28; Vaccinia inh Venus: -17

> CCCc1cn(CC[C@@H]2CC[C@H](NC(=O)C3CCCC3)[C@@H](CO)O2)nn1
  Vaccinia inh: -12; Vaccinia inh Venus: 2

> O=C(NCC[C@H]1CC[C@H](NC(=O)c2ccc3c(c2)OCO3)[C@H](CO)O1)Nc1cc(F)ccc1F
  Vaccinia inh: -7; Vaccinia inh Venus: -3

> CO[C@H]1CC[C@@H]2CCN(C)C(=O)[C@@H](C)N(C)C(=O)c3cccc(C#N)c3OC[C@H]1O2
  Vaccinia inh: 15; Vaccinia inh Venus: 7

> CC(C)C#Cc1cnc2c(c1)C(=O)N([C@@H](C)CO)C[C@H](C)[C@@H](CN(C)C(=O)c1ccccc1)O2
  Vaccinia inh: 5; Vaccinia inh Venus: 4

> C[C@@H]1CCCCO[C@H](CN(C)C(=O)Cc2ccccc2)[C@@H](C)CN([C@@H](C)CO)C(=O)c2cc(NS(=O)(=O)c3cccs3)ccc2O1
  Vaccinia inh: -25; Vaccinia inh Venus: -10

> CCCC(=O)Nc1ccc2c(c1)C(=O)N(C)C[C@H](OC)[C@@H](C)CN(S(=O)(=O)c1cn(C)cn1)[C@@H](C)CO2
  Vaccinia inh: 12; Vaccinia inh Venus: 13

> C[C@@H]1CN([C@H](C)CO)C(=O)Cc2cc(NC(=O)CCC(F)(F)F)ccc2O[C@@H]1CN(C)S(=O)(=O)c1ccc(F)cc1
  Vaccinia inh: 0; Vaccinia inh Venus: 0

> C[C@@H]1CN([C@@H](C)CO)C(=O)CCCn2nncc2CO[C@@H]1CN(C)C(=O)Nc1cccc(Oc2ccccn2)c1
  Vaccinia inh: 3&2; Vaccinia inh Venus: 2&0

> CCCC#Cc1ccc([C@H]2[C@H]3CN(Cc4cccnc4)CCCCN3[C@H]2CO)cc1
  Vaccinia inh: -3; Vaccinia inh Venus: -31

# Compound profiles (already shown):
# `C[C@@H]1CCCCO[C@H](CN(C)C(=O)C2CCCCC2)[C@@H](C)CN([C@H](C)CO)C(=O)c2cc(NC(=O)Nc3cccc4ccccc34)ccc2O1` reads Vaccinia inh = 13; Vaccinia inh Venus = -3
# `CCCc1cn(CC[C@@H]2CC[C@H](NC(=O)C3CCCC3)[C@@H](CO)O2)nn1` reads Vaccinia inh = -12; Vaccinia inh Venus = 2
# `C[C@@H]1CN([C@@H](C)CO)C(=O)c2cc(NS(=O)(=O)c3cccs3)ccc2O[C@@H]1CN(C)C(=O)Nc1ccc2c(c1)OCO2` reads Vaccinia inh = 17; Vaccinia inh Venus = 4

# High-throughput results (PubChem BioAssay)
